# Assay outcomes (PubChem BioAssay)
# Cruzain Triton = cruzain (T. cruzi) inhibition with detergent | AID 1478 | 200,000 tested, 0.43% active | Potency, µM, for the others: max response, negative = inhibition, most hits filed as inhibitors | purified cruzain, Z-FR-AMC fluorescence, 0.01% Triton | P25779; active means well fitted curve in the direction sought with a large enough effect; inconclusive means small, poorly fitted or top-dose-only effect, or another doubt; inactive means no such curve, though single readings can be large; an effect the other way counts as inactive or inconclusive;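 further: plate controls were neutral wells for no effect and buffer without enzyme for full effect; nearly all actives have a fitted effect of over 40% in size; top concentration of the series not given in the record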
# Target sequence (P25779 123-467 limits assumed): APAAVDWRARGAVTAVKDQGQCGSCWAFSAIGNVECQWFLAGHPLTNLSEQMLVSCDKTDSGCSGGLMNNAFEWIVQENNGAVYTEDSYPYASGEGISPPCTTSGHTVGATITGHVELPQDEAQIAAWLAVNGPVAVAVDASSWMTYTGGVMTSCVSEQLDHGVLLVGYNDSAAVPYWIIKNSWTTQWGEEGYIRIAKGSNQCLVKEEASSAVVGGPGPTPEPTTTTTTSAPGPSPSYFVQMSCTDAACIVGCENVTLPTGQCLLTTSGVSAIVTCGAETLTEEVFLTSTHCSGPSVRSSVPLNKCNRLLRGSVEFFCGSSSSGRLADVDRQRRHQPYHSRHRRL
#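 Detergent-containing run (0.01% Triton X-100) in acetate buffer pH 5.5 with 5 mM DTT: enzyme at 1.5 nM final, 15 min compound preincubation at room temperature, then 2 uM Z-FR-AMC substrate. Activity taken as 60 s fluorescence increase at 360/450 nm.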
# SARS PLP yeast = inhibitors of SARS-CoV papain-like protease in yeast; 330,000 tested, 0.19% active; S. cerevisiae expressing SARS-CoV PLpro, growth rescue; control for the full effect not named in the record; AID 485353; Potency, µM (titrated, usually from 32.9 µM), inactives show at the highest dose activity, positive = growth rescue; further: 0% is about no effect; nearly all actives have a fitted effect of over 55% in size; growth read by luminescence after 48 h
# NS1 inh = blocks influenza NS1 protein function. Potency, µM (titrated, usually from 46.1 µM), for the others: top-dose activity, positive = more growth. 270,000 tested, 0.4% active. S. cerevisiae slowed by influenza A NS1, growth recovery by OD600; further: actives are rising curves; nearly all actives have a fitted effect of over 50% in size
#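 In this qHTS, NS1 from influenza A is expressed in budding yeast, where it slows growth. Cells are switched from glucose to 2% galactose medium (pH 6.0, -URA), treated with compound, and growth recovery is read at OD600.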
# Lassa entry inh = inhibitors of Lassa virus binding or cell entry | Potency, µM (doses to about 37.9 µM), inactives show top-dose activity change, negative = inhibition, actives largely listed as inhibitors | 300,000 tested, 1.2% active | AID 540256 | Lassa virus pseudotype entry inhibition, cell reporter; control for the full effect not named in the record; active means well fitted inhibition curve with a large enough effect; inconclusive means small, poorly fitted or top-dose-only effect, or effect the other way; inactive means flat fitted curve, though single readings scatter; tested in HEK293 cells; further: on the % scale 0 is the no-effect control and ±100 the full control effect; nearly all actives have a fitted effect of over 50% in size; luciferase read-out
# Cruzain inh noDet = blocks cruzain activity in detergent-free assay; P25779; purified cruzain, Z-FR-AMC fluorescence, no detergent; Potency, µM, for inactives: max response, negative = inhibition, most hits filed as inhibitors; 200,000 tested, 2.3% active; AID 1476; active means well fitted curve in the direction sought with a large enough effect; inconclusive means small, poorly fitted or top-dose-only effect, or another doubt; inactive means no such curve, though single readings can be large; an effect the other way counts as inactive or inconclusive;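 further: plate controls were enzyme without inhibitor for no effect and buffer without enzyme for full effect; nearly all actives have a fitted effect of over 40% in size; top concentration of the series not given in the record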
#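 Detergent-free condition (0.00005% Triton X-100) in acetate buffer pH 5.5 with DTT. 1.5 nM enzyme and compound were pre-mixed 15 min, then 2 uM Z-FR-AMC substrate added; reaction progress from fluorescence change between first and third reads (60 s).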
# RE007 growth inh = less growth of the S. pombe RE007 Vpr strain | S. pombe RE007 Vpr strain, BacTiter-Glo ATP luminescence, 24 h; control for the full effect not named in the record | 360,000 tested, 0.21% active | Potency, µM (top dose mostly 92.2 µM), without a hit: at the highest dose activity change, negative = less growth | AID 651644; active = well fitted falling curve with a large enough effect; inconclusive = small, poorly fitted or top-dose-only effect; inactive = no such curve, though single readings can be large or run the other way;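 further: on the % scale 0 is the no-effect control and ±100 the full control effect; nearly all actives have a fitted effect of over 50% in size; the assay follows cell death caused by Vpr and the record does not say whether a fall means rescue or toxicity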
#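 Fission yeast strain RE007, carrying one chromosomally integrated HIV-1 vpr copy, was seeded at OD 0.01 in PMG+AL medium with 23 nL pinned compound. After 24 h at 30 °C and 99% humidity, viability was read by BacTiter-Glo luminescence.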
# StopGo reporter = lowers the luciferase signal of an FMDV 2A StopGo reporter. 410,000 tested, 1.2% active. human cells with a luciferase reporter of 2A StopGo recoding; control for the full effect not named in the record. AID 1159524. Potency, µM (top dose mostly 57.9 µM), inactives show at the top dose signal change, negative = less light; active = well fitted falling curve with a large enough effect; inconclusive = small, poorly fitted or top-dose-only effect; inactive = no such curve, though single readings can be large or run the other way; tested in HEK293T cells; further: on the % scale 0 is the no-effect control and ±100 the full control effect; nearly all actives have a fitted effect of over 45% in size; luciferase light after 4 h
# Marburg entry inh = blocks Marburg virus binding to or entry into cells; Marburg virus pseudotyped entry inhibition, cell reporter; control for the full effect not named in the record; about a third of the inactives were read at about 46 µM; Potency, µM (doses to about 37.8 µM), without a hit: at the highest dose activity change, negative = inhibition, hits mostly inhibitors; 300,000 tested, 1.8% active; active = well fitted inhibition curve with a large enough effect; inconclusive = small, poorly fitted or top-dose-only effect, or effect the other way; inactive = flat fitted curve, though single readings scatter; tested in HEK293 cells; about a fifth of its hits are not listed in these tables; further: on the % scale 0 is the no-effect control and ±100 the full control effect; luciferase read-out
# The depositor's hits bear a star; ? = inconclusive; / = no result given; & = joins results of further samples; [ ] = another dose, or the depositor's remark. Unless noted, the call rests on the fitted dose curve; in most records, active means well fitted rising curve with a large enough effect; inconclusive means small, poorly fitted or top-dose-only effect; inactive means no such curve, though single readings can be large or run the other way. Potency means the concentration at half of the fitted maximal effect.
# Values run as follows: Cruzain Triton | SARS PLP yeast | NS1 inh | Lassa entry inh | Cruzain inh noDet | RE007 growth inh | StopGo reporter | Marburg entry inh
CCN(CC)S(=O)(=O)c1ccc(OC)c(NC(=O)C2CC(=O)N(c3ccc4c(c3)OCCO4)C2)c1 (stereo not drawn)
    / | 4% | -2% | ? | / | 6% | 16% | -29%
COC(=O)c1cc(NS(=O)(=O)c2ccc(Cl)c(N3C(=O)c4ccc(C(=O)O)cc4C3=O)c2)cc(C(=O)OC)c1
    / | 0% | 6% | 12% | / | 8% | -6% | -8%[46.1 µM]
O=C(NCc1ccco1)c1ccc(Cn2c(=S)[nH]c3ccccc3c2=O)cc1
    / | 2% | / | 5% | / | 13% | 25% | -21%[46.1 µM]
O=C(/C=C\Nc1ccc(Br)cc1)c1cccnc1
    -7.8% | -2% | 9% | ? | -1% | -2% | -45% | ?
COc1ccc(N(CC(=O)N2CCN(C)CC2)S(C)(=O)=O)cc1OC
    5.8% | 3% | -7% | 13% | -1% | 7% | 19% | 29%
Cc1ccc(S(=O)(=O)NCCC(=O)NC2CCN(Cc3ccccc3)CC2)cc1
    / | / | / | -7% | / | 8% | -20% | ?
CCn1c(=O)cc(OCC(=O)NC2CC2)c2ccccc21
    / | 2% | -5% | / | / | 8% | 0% | /
CC(=O)N1c2ccc(S(=O)(=O)N3CCCCC3)cc2CC1C (stereo not drawn)
    / | 4% | -8% | / | / | -7% | -18% | /
O=C1c2ccccc2C(O)(Cc2ccccc2)N1C1CCCCC1 (stereo not drawn)
    -1.3% | / | -33% | 4% | -9% | -20% | -1% | 0%
CCN(CC)c1nc(N)n(CCSC(=S)N(C)C)c(=O)n1
    / | 0% | ? | / | / | -8% | -8% | /
COc1ccc(-n2ncc3c2CC(C)(C)CC3NC(=O)CSc2ccccn2)cc1 (stereo not drawn)
    / | -2% | -8% | / | / | 9% | -12% | /
CC(=O)Nc1ccc2c(c1)CC1(C(=O)N(C)C(=O)N(C)C1=O)C1CCCN21 (stereo not drawn)
    5.1% | -12% | 12% | -2% | -3% | -7% | -5% | -28%
CC[C@@]1(O)C(=O)OCc2c1cc1n(c2=O)Cc2cc3c(NC(=O)CN)cccc3nc2-1
    -2.6% | 0% | 0%&5% | -58% | 0% | 9% | -8% | ?
O=C1CCCN1CCC(=O)N1CCCC(Nc2ccc(F)cc2)C1 (stereo not drawn)
    / | -4% | 6% | -1% | / | 8% | -23% | 26%
CN(C)c1ccc(C(O)c2cc3ccccc3s2)cc1 (stereo not drawn)
    / | / | / | ? | / | -23% | -1% | ?
CCOc1ccc(OCCC(=O)N2CCN(S(=O)(=O)c3cccc(F)c3)CC2)cc1
    / | -6% | / | 1% | / | -13% | -18% | -14%
CC(=O)c1nn(-c2ccccc2)cc1C(=O)c1cccc(Br)c1
    -0.6% | 10% | 4% | 1% | ? | 9% | -6% | -12%
COc1cc(OC)c2cc(C(=O)N[C@H](C(=O)N3CCC[C@H]3C(=O)O)C(C)C)n(C)c2c1
    / | 3% | 6% | / | / | 3% | -11% | /
CCSc1ncc(Cl)c(C(=O)Nc2ccc(S(=O)(=O)N3CCC(C)CC3)cc2)n1
    -6.2% | / | / | -24%[46.1 µM] | -11% | / | ? | ?
Cc1cc(=O)oc2cc(OCC(=O)NC(Cc3c[nH]c4ccc(O)cc34)C(=O)O)c(Cl)cc12 (stereo not drawn)
    / | 6% | 14% | / | / | 0% | -20% | /

# Part of the list above, bar-delimited.
compound | Cruzain Triton | SARS PLP yeast | NS1 inh | Lassa entry inh | Cruzain inh noDet | RE007 growth inh | StopGo reporter | Marburg entry inh
CC(=O)c1nn(-c2ccccc2)cc1C(=O)c1cccc(Br)c1 | -0.6% | 10% | 4% | 1% | ? | 9% | -6% | -12%
CCOc1ccc(OCCC(=O)N2CCN(S(=O)(=O)c3cccc(F)c3)CC2)cc1 | / | -6% | / | 1% | / | -13% | -18% | -14%
CC[C@@]1(O)C(=O)OCc2c1cc1n(c2=O)Cc2cc3c(NC(=O)CN)cccc3nc2-1 | -2.6% | 0% | 0%&5% | -58% | 0% | 9% | -8% | ?
COc1cc(OC)c2cc(C(=O)N[C@H](C(=O)N3CCC[C@H]3C(=O)O)C(C)C)n(C)c2c1 | / | 3% | 6% | / | / | 3% | -11% | /

# New compounds follow:
# Values run as follows: Cruzain Triton | SARS PLP yeast | NS1 inh | Lassa entry inh | Cruzain inh noDet | RE007 growth inh | StopGo reporter | Marburg entry inh
Cc1ccc(S(=O)(=O)N2CCN(C(=O)CSc3ncc(C(F)(F)F)cc3Cl)CC2)cc1
    -4.1% | 0% | 29% | ? | 7% | 4% | -42% | ?
Cc1ccc(C)c(NC(=O)CSc2nc3nccnc3c(=O)n2CCc2c[nH]c3ccccc23)c1
    0.4% | / | / | 6%[46.1 µM] | 8% | / | -9% | /
CC1=C/C(=N\OS(=O)(=O)c2ccccc2)C(C)=CC1=O
    -3.6% | -46% | -147% | ? | 5% | 35µM* | 4.5µM* | ?
Cc1cccc(OCCn2c(SCC(N)=O)nc3ccccc32)c1
    -9.6% | / | / | 12%[46.1 µM] | ? | / | -15% | /
Cc1c(N)cc(N)cc1C(=O)O
    / | -2% | -62% | 3% | / | 2% | -11% | -3%
COc1ccc(CNC(=O)CCC2N=C3c4ccccc4N=C(SCc4ccc(F)cc4)N3C2=O)cc1 (stereo not drawn)
    -4.5% | / | / | -5%[46.1 µM] | ? | / | -15% | /
O=C(N/C(=N\O)c1ccccc1)Nc1ccc(Cl)cc1
    -2.4% | -2% | -71% | 2% | -8% | 7% | 30%[activator] | 41%
CCOC(=O)CSc1nnc(Cc2ccccc2)n1Cc1ccco1
    0.2% | -2% | -71% | 1% | -14% | 1% | -2% | 22%
CCCCc1nc2ccccc2c(N)c1CCC (tested in a mixture with another compound)
    -2.8% | -25% | -23% | ? | -6% | -20% | ? | 18µM*
CCN(CC)S(=O)(=O)c1ccc(OC)c(NS(=O)(=O)c2cccc(C(=O)O)c2)c1
    / | 3% | -2% | / | / | 0% | 8% | /
O=C(CSc1nnc2n1CCCN2)c1ccc([N+](=O)[O-])cc1
    / | 3% | 9% | 5%[46.1 µM] | / | 4% | -6% | 19%[46.1 µM]
C/C(=N\NC(=O)CNc1ccccc1)c1ccccc1
    / | 0% | -1% | / | / | 3% | 7% | /
NS(=O)(=O)c1cccc(C(=O)NC2CCSc3ccccc32)c1 (stereo not drawn)
    / | -1% | ? | 14% | / | -1% | 0% | -5%[46.1 µM]
CCC(=O)Nc1ccc(-c2ccc(N3CCN(C)CC3)nn2)cc1
    / | ? | 10% | / | / | -6% | 32%[activator] | /
COc1ccccc1N1CCN(C(=O)/C=C/c2ccc(C)cc2)CC1
    -3.5% | 8% | -19% | 14% | -1% | -12% | -1% | ?
COc1ccc(OC)c(CNC(=O)CCS(=O)(=O)c2ccc3c(c2)oc(=O)n3C)c1
    -0.7% | -2% | -4% | ? | -14% | 0% | 7%&-22% | -7%&-7%[46.1 µM]
CCCCOc1ccc(Cn2c(=O)sc3ccccc32)cc1
    -7.2% | / | / | -6%[46.1 µM] | -24% | / | -2% | -18%[46.1 µM]
CCCCCc1nnc(NC(=O)NS(=O)(=O)c2ccc(C)cc2)s1
    / | 1% | -6% | -6% | / | -2% | -9% | 0%[46.1 µM]
CC(C)(C)C(=O)/C=C1\NC(=O)CS1
    / | -1% | / | 13% | / | 8% | 3% | -5%[46.1 µM]
Cc1c(/C=N\NC(=O)C2COc3ccccc3O2)c2ccccc2n1C (stereo not drawn)
    -11% | -32% | -38% | ? | 12% | 7% | -2% | -20%

# An excerpt from above in order of molar mass, rising.
# Values run as follows: Cruzain Triton | SARS PLP yeast | NS1 inh | Lassa entry inh | Cruzain inh noDet | RE007 growth inh | StopGo reporter | Marburg entry inh
CC(C)(C)C(=O)/C=C1\NC(=O)CS1
    / | -1% | / | 13% | / | 8% | 3% | -5%[46.1 µM]
C/C(=N\NC(=O)CNc1ccccc1)c1ccccc1
    / | 0% | -1% | / | / | 3% | 7% | /
O=C(CSc1nnc2n1CCCN2)c1ccc([N+](=O)[O-])cc1
    / | 3% | 9% | 5%[46.1 µM] | / | 4% | -6% | 19%[46.1 µM]
NS(=O)(=O)c1cccc(C(=O)NC2CCSc3ccccc32)c1 (stereo not drawn)
    / | -1% | ? | 14% | / | -1% | 0% | -5%[46.1 µM]

# (cont.)
# Values run as follows: Cruzain Triton | SARS PLP yeast | NS1 inh | Lassa entry inh | Cruzain inh noDet | RE007 growth inh | StopGo reporter | Marburg entry inh
CCOc1ccc(OCC)c(Nc2ccc3cc(S(=O)(=O)N4CCCC4)ccc3n2)c1
    0.1% | / | / | 3%[46.1 µM] | -16% | / | -21% | /
CCN(CC)S(=O)(=O)c1ccc(NC(=O)CN(c2cccc(C)c2)S(C)(=O)=O)cc1
    -5.6% | 7% | -5% | ? | 4% | 5% | 8% | ?
COc1ccc2c(c1)c(C(=O)CN1CCC(C(N)=O)CC1)c(C)n2C
    -2.1% | -7% | 3% | 25% | 1% | -8% | -5% | 0%
COC(=O)[C@H](Cc1ccccc1)NC(=O)N1CCCCC1C (stereo partly drawn)
    0.1% | -3% | 0% | 27% | -8% | 14% | 31%[activator] | 15%
COC(=O)c1ccc(S(=O)(=O)N2CCC(O)CC2)n1C
    / | -3% | 7% | -4%[46.1 µM] | / | 1% | 3% | 15%[46.1 µM]
Cc1ccccc1NC(=O)Cn1nnc(-c2ccc(N3CCOCC3)cc2)n1
    -3.0% | 1% | -5% | 2% | -15% | 4% | 4% | 5%
COc1ccc(NC(=O)c2cc(-c3ccccc3Cl)on2)cc1
    / | 4% | -5% | / | / | 4% | 83%[activator] | /
COc1ccccc1CNC(=O)CCNS(=O)(=O)c1cccc2nsnc12
    -2.0%&-3.0% | -2% | 0% | -2%[46.1 µM] | 4%&0% | -4% | -6% | -2%[46.1 µM]
O=C1NC2NC(=O)N([N+](=O)[O-])C2N1 (stereo not drawn)
    / | 0% | 2% | / | / | 0% | -11% | /
